# Screening results from PubChem BioAssay.
# H5N1 antiviral – MDCK cell protection from H5N1 avian flu; cytopathic effect, luminescence, 72 h; hits give high values; no value below 0 was filed and about half of the inactive calls have no number; reference of the scale not given here; inhibition, % at 50 µM; 96,000 tested, 0.07% active; in the data active = inhibition above about 25%
# * marks the source's active call; other numbers are inactive results; i = inactive.
SMILES,H5N1 antiviral
COc1cc([N+](=O)[O-])ccc1NC(=O)C[n+]1cccc(C)c1,i
COc1cc(C(=O)Nc2ccc(O)cc2)ccc1OC(C)=O,0.9
Cc1ccc(C)c(CSc2nnc(-c3cccs3)n2Cc2ccco2)c1,2.1
CN1C(=O)c2ccccc2Sc2ccc(NC(=O)N3CCCC3)cc21,1.5
O=C(NS(=O)(=O)c1ccc2c(c1)OCCO2)c1ccccc1,0.7
CCOC(=O)C1CCN(c2c(Nc3ccc4c(c3)OCCO4)c(=O)c2=O)CC1,1.5
O=C(CCSCCC(=O)NCC1CCCO1)NCC1CCCO1 (configuration not stated),0.2
O=C(CSc1nc(Nc2ccccc2)nc(N2CCOCC2)n1)Nc1ccccc1Cl,1.9
CCOC(=O)C1C2C=CC3(CN(c4cccc(Cl)c4)C(=O)C13)O2 (configuration not stated),0.0
Cc1cc(=O)oc2ccc(OCC(=O)N(Cc3ccc(F)cc3)Cc3ccco3)cc12,3.9

# Fetched by structure from the entries so far, 4 records:
SMILES,H5N1 antiviral
Cc1ccc(C)c(CSc2nnc(-c3cccs3)n2Cc2ccco2)c1,2.1
COc1cc([N+](=O)[O-])ccc1NC(=O)C[n+]1cccc(C)c1,i
O=C(CSc1nc(Nc2ccccc2)nc(N2CCOCC2)n1)Nc1ccccc1Cl,1.9
O=C(CCSCCC(=O)NCC1CCCO1)NCC1CCCO1 (configuration not stated),0.2

# The results go on.
SMILES,H5N1 antiviral
CN=C1SC(CC(=O)Nc2ccc(C(=O)O)cc2)C(=O)N1C (configuration not stated),0.9
CSc1ccccc1NC(=O)c1cc(C)on1,i
O=C(CCCN1C(=O)c2ccccc2C1=O)OC1CSCC1NC(=O)c1ccccc1 (configuration not stated),i
COc1ccc(/C=N\NC(=O)C2C(=O)NCC2c2ccccc2)cc1O (configuration not stated),i
COc1ccc(-c2nnc(SCc3ccccc3F)o2)cc1,1.5
O=C(c1ccc(Br)cc1)N1CCN(S(=O)(=O)c2ccccc2)CC1,7.3
N#Cc1nc(-c2ccc(OCc3ccccc3)cc2)oc1N1CCC(C(N)=O)CC1,i
O=C(Cc1ccccc1[N+](=O)[O-])NCCSCc1c(F)cccc1Cl,i
CN(C)CCNc1oc(COc2ccc(Cl)cc2)nc1C#N,i
O=C1CC(c2cccc(Br)c2)C2=C(CCCC2=O)N1 (configuration not stated),i
Cc1[nH]nc2c1C(c1cn[nH]c1-c1ccc(F)cc1)C(C#N)=C(N)O2 (configuration not stated),i
CCOC(=O)N1CCN(CC(=O)n2c(C)c(C)c3ccccc32)CC1,i
COc1ccc(OC)c(-c2cc(C(=O)N3CCc4ccccc4C3)no2)c1,i
O=P(c1ccccc1)(c1ccccc1)C(O)c1ccco1 (configuration not stated),i
CCOc1ccccc1OCC(=O)Nc1ccc(S(=O)(=O)Nc2nc(C)cc(C)n2)cc1,1.7
COc1cc(OC)cc(-n2nc(C(=O)NCCCN3CCOCC3)c3ccccc3c2=O)c1,0.3
CCCn1cc(SCC(=O)NCC2CCCO2)c2ccccc21 (configuration not stated),1.5
Cn1c(=O)oc2cc(S(=O)(=O)NC(Cc3ccccc3)C(=O)N3CCCCC3)ccc21 (configuration not stated),4.0
Cc1cccc(C(=O)Oc2ccccc2C2C[C@]3(C)CC(=O)NC3N2C(=O)c2cccc(C)c2)c1 (some centres not stated),0.1
COc1cccc(CC(NC(C)=O)C(=O)NC2CCN(S(=O)(=O)c3ccc4ccccc4c3)CC2)c1 (configuration not stated),i
COc1cccc(Cn2c(C3CC3)nc3ccc(NC(=O)c4ccco4)cc3c2=O)c1,i
O=C(Nc1nccs1)c1c(O)c2cccc3c2n(c1=O)CCC3,0.4
Cc1ccc2[nH]c(-c3ccccc3)c(CN(C)C)c(=O)c2c1,i
CCOC(=O)c1sc(NC(=O)c2ccc(Cl)s2)cc1C,1.3
CCOCCCNC(=O)C(NC(=O)CNC(=O)c1ccccc1)c1ccc(C)cc1 (configuration not stated),0.3
CCCCn1c(=O)cc(N2CCOCC2)[nH]c1=O,0.8
CCOCCCNC(=O)c1ccc(CS(=O)(=O)Cc2cccc(C)c2)o1,0.1
O=S(=O)(CCSc1nc2ccccc2o1)Cc1ccccc1,0.4
O=C1NC2(CCc3ccccc32)C(=O)N1CCOc1ccc(Cl)cc1 (configuration not stated),i
CCCCc1cc(=O)oc2cc(C)cc(OC(C)C(=O)O)c12 (configuration not stated),0.3
Cc1ccccc1C(=O)N1CCC(C(=O)Nc2cccc(F)c2)CC1,0.5
CCOC(=O)c1cnc(SC2CC(=O)N(c3ccc(C)cc3)C2=O)nc1N (configuration not stated),0.1
CCOC(=O)c1cc2cc(F)ccc2nc1C,0.3
COc1ccc(-c2c3c(=O)n(C)c(=O)n(C)c3cn2-c2ccccc2)cc1,0.1
COc1ccc(-n2nc(C(=O)N3CCN(Cc4ccc5c(c4)OCO5)CC3)c3ccccc3c2=O)cc1,0.4
CC(C)c1ccccc1NC(=O)CCCC(=O)O,i
Cc1ccc(C(=O)Oc2oc(-c3ccco3)nc2C=Nc2ccccc2)cc1,i
Cc1cc(C)cc(OCc2nnc(SCC(=O)OC(C)C)o2)c1,0.4
CCOC(=O)c1c(NC(=O)/C=C/c2ccc3c(c2)OCO3)sc(C)c1CC,i
Cc1ccc(C)c(N(CC(=O)NC2CCCC2)C(=O)CCCC(=O)Nc2ccccn2)c1,i
O=C(Cc1sc(-c2ccccc2)nc1-c1ccccc1)Nc1ccccc1,i
CC1CC(=O)c2cnc(Nc3ccccc3)nc2C1 (configuration not stated),1.2
CCOC(=O)C1=NN(c2ccccc2)C2(S1)SC(C(C)=O)=C(C)N2c1ccccc1 (configuration not stated),i
Cc1nn(-c2c(Cl)cc(Cl)cc2Cl)c(=O)c2ccccc12,i
Cn1nnc(NC(=O)C(c2ccccc2)c2ccccc2)n1,i
COc1cccc(-c2nc(N3CCCCC3C)c3ccccc3n2)c1O (configuration not stated),1.9
CC(C)CC(NC(=O)C1CCC(C)CC1)C(=O)NCc1cccnc1 (configuration not stated),1.5
CCCCNC(=O)c1cc2nc3c(c(C(F)(F)F)n2n1)CCc1ccccc1-3,i
O=C(c1csc2ccccc12)N1CCN(c2ccccn2)CC1,i
O=C(NCN1C(=O)C2C3C=CC(C3)C2C1=O)Nc1nccs1 (configuration not stated),i

# Of the compounds above, 2 have bromine:
SMILES,H5N1 antiviral
O=C(c1ccc(Br)cc1)N1CCN(S(=O)(=O)c2ccccc2)CC1,7.3
O=C1CC(c2cccc(Br)c2)C2=C(CCCC2=O)N1 (configuration not stated),i

# The list goes on.
SMILES,H5N1 antiviral
CCOC(=O)C1=C(C)NC(SCC(=O)Nc2nc(C)cs2)=C(C#N)C1c1cccs1 (configuration not stated),0.7
COc1ccc(CSc2nnc(N)s2)cc1F,1.9
Cc1nn(Cc2ccccc2)c(N)c1-c1ccccc1,i
N#CC1=C(N)N(c2ccccc2)C(=O)C1,i
Cc1occc1-c1nnc(SCC(=O)Nc2ccc(F)cc2)n1Cc1ccccc1,i
COCCCNC(=O)c1ccc(Cn2c(=O)c3ccccc3n(Cc3ccccc3C#N)c2=O)cc1,0.7
CCC(=O)N(Cc1ccc(S(N)(=O)=O)cc1)C1CC(=O)N(c2ccc(OC)cc2)C1=O (configuration not stated),1.0
O=C(Nc1ccccc1N1CCN(C(=O)c2ccc(Cl)cc2)CC1)c1cc2ccccc2o1,0.5
CC(C)c1ccc(C2C3=C(CC(C)(C)CC3=O)NC3=C2C(=O)c2ccccc23)cc1 (configuration not stated),6.1
Cc1cccc(-c2nsc(SCC(=O)NCc3ccco3)n2)c1,0.7
Cn1nc(C(F)(F)F)c(/C=N/OC(=O)c2ccccc2)c1Cl,2.2
Cn1c(=O)n(C)c2cc([N+](=O)[O-])c(N3CCN(C(=O)c4ccccc4Cl)CC3)cc21,6.2
CC(C)(C)C(=O)COC(=O)c1ccccc1O,1.0
CCOc1ccc2[nH]c(=O)c(CN(Cc3ccco3)C(CC)c3nnnn3Cc3ccccc3)cc2c1 (configuration not stated),2.1
CCCCCn1c(=O)c(C(=O)NCc2ccccn2)c(O)c2ccccc21,5.6
O=C(CN1CCN(c2ccccc2F)CC1)c1c[nH]c2ccccc12,i
CC(C)n1nnnc1C(c1ccc(F)cc1)N1CCN(C2CCCC2)CC1 (configuration not stated),0.3
CCOc1ccc(/C(O)=C2\C(=O)C(=O)N(c3cc(C)on3)C2c2ccccc2OC)cc1 (configuration not stated),1.9
CCOc1ccc(CSC(CC(=O)O)C(=O)O)cc1 (configuration not stated),2.5
COCCN(CCOC)c1cc(C)c(C#N)c2nc3ccccc3n12,1.4
CCc1ccc(NC(=O)C2(c3ccccc3)CC2(Cl)Cl)cc1 (configuration not stated),5.8
OC(COc1ccc2ccccc2c1)CN1CCOCC1 (configuration not stated),i
CCOC(=O)c1ccc(Nc2nc(-c3cccnc3)nc3ccccc23)cc1,i
COCc1ccccc1Cn1cnc2c1c(=O)n(C)c(=O)n2C,i
CCc1ccc(NC(=O)Cn2c(=O)n(CCCC(=O)NCc3ccco3)c(=O)c3ccccc32)cc1,i
CCOC(=O)c1ccc(NCC(O)COc2ccccc2)cc1 (configuration not stated),2.1
COc1ccc(C2C(C(=O)c3ccco3)=C(O)C(=O)N2CCc2ccccc2)cc1OC (configuration not stated),i
O=C(NN1C(=O)c2ccc3c4c(ccc(c24)C1=O)CC3)c1ccc(Br)cc1,0.3
Cc1sc2ncn(CC(=O)NCC(=O)N(C)C3CCCCC3)c(=O)c2c1C,1.4
O=C(NCCCN1CCCCC1)c1ccc2c(c1)NC(=O)C(N1CCOCC1)S2 (configuration not stated),i

# Compounds listed so far that contain a cyano group, in the order listed:
SMILES,H5N1 antiviral
N#Cc1nc(-c2ccc(OCc3ccccc3)cc2)oc1N1CCC(C(N)=O)CC1,i
CN(C)CCNc1oc(COc2ccc(Cl)cc2)nc1C#N,i
Cc1[nH]nc2c1C(c1cn[nH]c1-c1ccc(F)cc1)C(C#N)=C(N)O2 (configuration not stated),i
CCOC(=O)C1=C(C)NC(SCC(=O)Nc2nc(C)cs2)=C(C#N)C1c1cccs1 (configuration not stated),0.7
N#CC1=C(N)N(c2ccccc2)C(=O)C1,i
COCCCNC(=O)c1ccc(Cn2c(=O)c3ccccc3n(Cc3ccccc3C#N)c2=O)cc1,0.7
COCCN(CCOC)c1cc(C)c(C#N)c2nc3ccccc3n12,1.4

# Continued.
SMILES,H5N1 antiviral
O=c1c2cc(Cl)ccc2[nH]c(=S)n1Cc1ccco1,i
O=C(NCc1ccco1)c1cccc(S(=O)(=O)N2CCCCC2)c1,0.3
COC(=O)c1nn(-c2ccc(-c3ccccc3)cc2)cc1O,i
O=[N+]([O-])c1ccc(Cl)c(-c2ccc(/C=N/c3c(-c4ccco4)nc4ccccn34)o2)c1,i
O=C(NCC1CCCO1)c1ccccc1 (configuration not stated),0.8
CC(Oc1ccc(-c2ccccc2)c(F)c1)c1ccn(S(=O)(=O)c2cccc3ccccc23)n1 (configuration not stated),1.6
Cc1cc(C)nc(SCc2nnc(SCC(=O)Nc3ncc(C)s3)n2Cc2ccco2)n1,1.0
Cc1occc1-c1nnc(SCCCC(=O)c2ccc(F)cc2)n1C,i
COc1ccc(C(=O)OC(C)CN2CCOCC2)cc1OC (configuration not stated),i
CCCSc1nnc(Nc2ccccc2C)s1,0.2
Cc1cc(C)nc(N(C#N)CC(=O)c2ccccc2)n1,1.4
Nc1nnc(CC(=O)N/N=C/c2cccc(OCCOc3ccccc3)c2)s1,0.2
O=C(Cc1cccs1)Nc1nnc(Cc2ccc(F)cc2)s1,i
O=C(Nc1ccc2c(c1)OCO2)C1CCCCN1S(=O)(=O)c1ccc(F)cc1 (configuration not stated),0.8
Cc1ccc(O)c(-c2cc(-c3ccccc3F)[nH]n2)c1,i
CCOc1ccc(OCC)c(NC(=O)CSCC(=O)O)c1,0.4
CCCn1c(CNC(=O)c2cccs2)nc2ccccc21,0.9
Cc1cccc(/C=C2/SC(=O)N(Cc3ccccc3)C2=O)n1,1.2
O=C(CN1C(=O)c2ccccc2C1=O)Nc1ccccc1F,0.7
O=C1c2ccccc2C(=O)N1c1ccc(S(=O)(=O)N2CCN(c3ccccc3)CC2)cc1,1.2
Cc1cccc2cc(C(c3nnnn3CC3CCCO3)N3CCCc4ccccc43)c(=O)[nH]c12 (configuration not stated),0.7
Cc1cccc2cc(COC(=O)c3cccnc3)c(=O)[nH]c12,i
CCN1CCN(CCCNC(=O)C(NC(=O)C2CCC(C)CC2)C(C)C)CC1 (configuration not stated),i
COc1ccc(CNC(=O)/C=C/c2cc3c(cc2Br)OCO3)cc1,i
COCCN(C(=O)CCC(=O)Nc1cccnc1)C(C(=O)NC1CCCCC1)c1ccccc1 (configuration not stated),i
CCS(=O)(=O)N1CCC(C(=O)NCCc2ccc(C)cc2)CC1,i
Cc1cccc(OCCCC(=O)O)c1,0.8
CN1CCN(/C(=N\O)c2nonc2N)CC1,0.3
CCOC(=O)c1sc2nc(CC(=O)OC)nc(NCc3ccco3)c2c1C,1.6
COC(=O)C1=C(C)NC2=C(C(=O)c3ccccc32)C1c1ccc(-c2ccc(C(=O)O)cc2)o1 (configuration not stated),i
CCCN(CCC)CCNC(=O)C1CCCN(S(=O)(=O)c2ccc3c(c2)oc(=O)n3C)C1 (configuration not stated),1.3
CCNC(=O)CC1SC(=Nc2ccc(C)cc2)N(CC)C1=O (configuration not stated),i
O=C(NCc1ccncc1)c1cccc(Cn2cc(Br)cn2)c1,i
CCOc1ccc(S(=O)(=O)NCCCN2CCOCC2)cc1,0.2
CCCCNC(=O)c1c(N)n(CCCOC)c2nc3ccccc3nc12,i
CCOC(=O)c1ccc(NC(=O)CN2C(=O)C3C4C=CC(C4)C3C2=O)cc1 (configuration not stated),0.8
COc1ccc(C(=O)COC(=O)CSCc2c(C)noc2C)cc1OC,i
C=CCN(CC=C)c1nc2ccccc2nc1C(C#N)C(=O)OC(C)C (configuration not stated),0.9

# A portion of the library; count on the stated rates, not on these rows.
